V. cholerae motility – Vibrio cholerae motility inhibitors, OD read-out (AID 588778). Vibrio cholerae motility, OD read-out; higher % means a stronger effect; test concentration not given here; primary cut-off and reference of the scale not given here; strong numbers were not always called active. one-dose inhibition, %; IC50 in µg/mL for titrated hits. 10,000 tested, under 10 active; in the data active = confirmed in a dose series; inconclusive = primary hit not retested
V. cholerae motility viability – further read-out of V. cholerae motility, marked with its call; inhibition, %; measured here: bacterial viability at 10 ug/mL;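 higher means fewer living bacteria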
* marks the source's active call; other numbers are inactive results; ? = inconclusive; . = no result given. A portion of the library (hit frequency here may not be typical).

structure,V. cholerae motility,V. cholerae motility viability
Clc1ccc(C2=NC(c3ccc(Cl)cc3)c3c(ccc4ccccc34)N2)cc1 (stereo unspecified),6%,2
CCOC(=O)c1ccc(NC(=S)NCCc2ccccc2F)cc1,?,.
Cn1c(=O)c2c(ncn2CC(=O)Nc2nnc(C3CCCCC3)s2)n(C)c1=O,-2%,-5
COc1cc(NC(=O)c2ccc(Cn3cc(Cl)cn3)o2)c(C(C)=O)cc1OC,1%,-2
O=C(CS(=O)(=O)Cc1ccccc1)Nc1cc(F)cc(F)c1,22%,-1
N#C/C(=C/c1ccc(-c2ccc(Cl)c(Cl)c2)o1)c1[nH]nc(N)c1C#N,14%,0
CCOC(=O)c1cc2ccc(OC(=O)c3ccc(Cl)c(Cl)c3)cc2oc1=O,2%,18
COc1ccc(/C(C)=N\NC(=O)CN2CCN(Cc3ccccc3)CC2)cc1,4%,-2
COc1ccc(NS(=O)(=O)c2ccc(NC(=O)c3ccc(Br)cc3)cc2)nn1,5%,3
C1=CC2CC1CC2CN1CCN(Cc2ccco2)CC1 (stereo unspecified),-11%,-4
COC(=O)c1sc(S(=O)(=O)Nc2cccc(C(F)(F)F)c2)c(C(=O)OC)c1C,-4%,-6
COc1ccc2c(=O)c(N3C(=O)c4ccccc4C3=O)coc2c1,-15%,-10
Cn1c(=O)c(/C=C/c2cccs2)nc2ccccc21,-15%,-9
Cc1ccc(NC(=O)COc2c(C)cccc2C)c(Br)c1,0%,-5
COc1cc(C(=O)N(C(C)C)C(C(=O)NC2CCCC2)c2ccccc2)cc(OC)c1OC (stereo unspecified),20%,13
COc1ccc2oc(=O)c(C(=O)C[n+]3ccc(C)cc3)cc2c1,6%,1
COc1ccc(C(=O)Nc2c(Cl)cc(Cl)cc2C(=O)NCc2cccnc2)cc1,0%,-2
CC(=O)N/C(=C/c1ccccc1)C(=O)N1CCN(C(=O)/C(=C\c2ccccc2)NC(C)=O)CC1,-15%,-8
Cc1cc(C)nc(/N=C(N)/N=C2\CC(=O)N(c3ccccc3)N2)n1,12%,16
Cc1cc(NC(=O)CSc2nnnn2-c2ccccc2F)no1,4%,-1

Random excerpt: 2 compounds from above
structure,V. cholerae motility,V. cholerae motility viability
COc1ccc(NS(=O)(=O)c2ccc(NC(=O)c3ccc(Br)cc3)cc2)nn1,5%,3
CC(=O)N/C(=C/c1ccccc1)C(=O)N1CCN(C(=O)/C(=C\c2ccccc2)NC(C)=O)CC1,-15%,-8

Remaining list, next part
structure,V. cholerae motility,V. cholerae motility viability
CN1CCN(C(=S)Nc2ccc(Br)cc2Cl)CC1,-6%,-3
Cc1cc(C)nc(N/C(=N/S(=O)(=O)c2ccccc2)N2CCc3ccccc3C2)n1,-1%,-3
O=C(NCCc1ccc(Cl)cc1)c1ccccc1C(F)(F)F,7%,-1
O=C(Nc1ccccc1)Nc1ccccn1,-1%,4
Cc1ccc(NC(=S)c2ccccn2)c(Br)c1,-8%,-6
CC(C)C(=O)N1CCN(c2ccc(NC(=S)NC(=O)c3cc4ccccc4o3)cc2)CC1,-8%,-5
CN1CCN(C(=O)N2CCOCC2)CC1,1%,2
O=C(NCC(O)CNC(=O)C(F)(F)C(F)(F)F)C(F)(F)C(F)(F)F,15%,7
O=C(c1ccccc1)N1CCN(c2nc(-c3ccccc3)c3ccccc3n2)CC1,5%,34
O=C(NC(=S)Nc1cccnc1)c1cc(Cl)ccc1Cl,-6%,2
COC(=O)c1cc(-c2c(C)nn(-c3ccccc3)c2C)n[nH]1,-4%,0
Cc1c(C)n(C(=O)CSc2nnc(-c3ccccc3)o2)c2ccccc12,2%,0
Fc1ccccc1NC(=S)N1CCCC1,-25%,-7
O=C(OCc1ccccc1Cl)C1(O)c2ccccc2-c2ccccc21,25%,6
COc1ccc(Nc2nc(N3CCN(S(C)(=O)=O)CC3)nc3ccccc23)c(OC)c1,9%,29
Nc1nnc(SCc2cc3c(cc2Cl)OCO3)s1,9%,0
CCCCc1ccc(S(=O)(=O)NNC(=S)NCc2ccco2)cc1,18%,4
Cc1cc(Br)c(Nc2c([N+](=O)[O-])cc3c4c(cccc24)C(=O)N(CCO)C3=O)cc1C,-2%,9
COC1(c2ccccc2)OC(=O)c2ccccc21 (stereo unspecified),12%,4
CCN1CCN(c2c(Cl)cccc2NC(=S)NC(=O)c2ccc(C)cc2Cl)CC1,17%,3
CCCCC(CC)CNC(=O)C(=O)NCCOC (stereo unspecified),7%,-1
O=C(O)c1c(-c2ccccc2)c2oc3ccccc3c2[nH]c1=O,-14%,-4
O=c1[nH]c(SCc2nnc(Nc3ccccc3)s2)nc2sc3c(c12)CCC3,-12%,-2
O=C1CC(c2ccc(F)cc2)CC2=C1C(c1cccs1)n1c(nc3ccccc31)N2 (stereo unspecified),-11%,-1
CNS(=O)(=O)Cc1ccccc1Cl,-2%,-2
CC(C)(C)c1csc(NC(=O)Cc2cccs2)n1,16%,33
CC1(C)CC(=O)c2sc(NS(=O)(=O)c3cc(Cl)ccc3Cl)nc2C1,14%,6
S=C(NC1CC1)NN1CCOCC1,0%,-2
CCC1(CC)C(=O)NC(=S)N(C)C1=O,26%,14
COC(=O)NCc1ccc(Cl)c(Cl)c1,13%,7
Cc1nonc1OCCNc1cc(N2CCOCC2)ccc1[N+](=O)[O-],-8%,3
COc1cc2c(cc1NCc1ccccn1)oc1ccccc12,-5%,-6
CC12CCC(c3nc4cc([N+](=O)[O-])ccc4nc31)C2(C)C (stereo unspecified),3%,0
CN(CCc1ccccn1)S(=O)(=O)c1ccccc1,5%,-4
Cc1ccc(C(=O)CCC(=O)Nc2ccccc2C)c(C)c1,5%,31
CCOC(=O)N1CCN(C(=O)Nc2ccc(C)cc2)CC1,-6%,-1
CCn1ncc(Br)c1C(=O)NC1CCCCC1,0%,-3
Cc1nn(CCCC(=O)O)c(C)c1[N+](=O)[O-],-9%,-2
O=C(CCC(=O)Nc1ccccc1Cl)NNC(=S)Nc1ccccc1C(F)(F)F,27%,5
CCOC(=O)c1ccc(CNC(=O)C(CCSC)NC(=O)c2ccccc2)o1 (stereo unspecified),-10%,5

20 compounds from above, ordered by molecular weight, ascending.
structure,V. cholerae motility,V. cholerae motility viability
S=C(NC1CC1)NN1CCOCC1,0%,-2
CCC1(CC)C(=O)NC(=S)N(C)C1=O,26%,14
Cc1nn(CCCC(=O)O)c(C)c1[N+](=O)[O-],-9%,-2
COC1(c2ccccc2)OC(=O)c2ccccc21 (stereo unspecified),12%,4
CCCCC(CC)CNC(=O)C(=O)NCCOC (stereo unspecified),7%,-1
CN(CCc1ccccn1)S(=O)(=O)c1ccccc1,5%,-4
CC12CCC(c3nc4cc([N+](=O)[O-])ccc4nc31)C2(C)C (stereo unspecified),3%,0
CCOC(=O)N1CCN(C(=O)Nc2ccc(C)cc2)CC1,-6%,-1
Cc1ccc(C(=O)CCC(=O)Nc2ccccc2C)c(C)c1,5%,31
CCn1ncc(Br)c1C(=O)NC1CCCCC1,0%,-3
COc1cc2c(cc1NCc1ccccn1)oc1ccccc12,-5%,-6
O=C(O)c1c(-c2ccccc2)c2oc3ccccc3c2[nH]c1=O,-14%,-4
Cc1nonc1OCCNc1cc(N2CCOCC2)ccc1[N+](=O)[O-],-8%,3
CCOC(=O)c1ccc(CNC(=O)C(CCSC)NC(=O)c2ccccc2)o1 (stereo unspecified),-10%,5
CC1(C)CC(=O)c2sc(NS(=O)(=O)c3cc(Cl)ccc3Cl)nc2C1,14%,6
O=c1[nH]c(SCc2nnc(Nc3ccccc3)s2)nc2sc3c(c12)CCC3,-12%,-2
O=C1CC(c2ccc(F)cc2)CC2=C1C(c1cccs1)n1c(nc3ccccc31)N2 (stereo unspecified),-11%,-1
O=C(CCC(=O)Nc1ccccc1Cl)NNC(=S)Nc1ccccc1C(F)(F)F,27%,5
CCN1CCN(c2c(Cl)cccc2NC(=S)NC(=O)c2ccc(C)cc2Cl)CC1,17%,3
Cc1cc(Br)c(Nc2c([N+](=O)[O-])cc3c4c(cccc24)C(=O)N(CCO)C3=O)cc1C,-2%,9

(continued)
structure,V. cholerae motility,V. cholerae motility viability
O=C(Nc1ccccc1)N1CCCCC1c1cccnc1 (stereo unspecified),-22%,-6
CS(=O)(=O)N(CC(=O)O)c1ccc(C23CC4CC(CC(C4)C2)C3)cc1,3%,-2
Nc1nc(SCc2ccccc2Cl)[nH]c(=O)c1-c1ccccc1,10%,6
CCOC(=O)Cc1c(C)nc2c(C#N)c(C)nn2c1C,10%,0
N/C(=N\OC(=O)CCCOc1ccc(Cl)cc1Cl)c1ccccn1,11%,4
O=C(OCc1ccc(S(=O)(=O)c2ccccc2)cc1)c1cc(=O)[nH]c2ccccc12,-18%,-12
O=Cc1ccc(OC(=O)c2cccs2)c(Cl)c1,20%,2
O=C(NCc1ccccc1F)c1csc2c1CCCC2,-2%,-6
CCCC(=O)N1CC2(C)CN(C(=O)CCC)CC(C)(C1)C2O (stereo unspecified),2%,-2
O=C(CC(F)(F)F)Nc1ccccn1,-9%,-3
c1ccc(-c2ccc(OCCCNC3CCCC3)cc2)cc1,31%,11
Cc1ccsc1C=Nn1c(-c2ccccc2)n[nH]c1=S,11%,-1
OCCCc1nc2ccccc2n1Cc1c(F)cccc1Cl,1%,7
OCC(CO)(CO)NCC(O)CN1c2ccccc2Sc2ccccc21 (stereo unspecified),4%,-2
Nc1cc(N)nc(SCC(=O)Nc2nncs2)n1,-16%,-6
O=C(O)C1OC2OC3(CCCCC3)OC2C2OC3(CCCCC3)OC12 (stereo unspecified),-6%,-3
CCOC(=O)Cc1csc(NC(=O)/C=C/c2ccc(OC)cc2)n1,-7%,-8
CCn1c(CNC(=O)c2cccc(C)c2)nnc1SCC(=O)Nc1ccc(OC)cc1[N+](=O)[O-],-7%,-7
Cc1cc(C)nc(NC(=O)Cc2ccc(Br)cc2)n1,28%,2
O=C(CSc1nc(-c2ccccc2)cs1)c1cc2ccccc2oc1=O,7%,-2
CCOC(=O)c1ccc(COC(=O)CCC(=O)Nc2ccc(C)cc2[N+](=O)[O-])c(Br)c1,-6%,-6
CCOC(=O)c1cnc2c(C)c(Cl)ccc2c1N1CCN(CC)CC1,6%,1
O=C(COc1ccc(Br)cc1Cl)NC(=S)N1CCc2ccccc21,47%,16
CC(C)(C)NC(=O)CSc1nc2ccc(NC(=O)CSc3nnc(N)s3)cc2s1,15%,2
NC(=NC1CCCCC1)c1ccc([N+](=O)[O-])cc1,3%,1
CCc1ccccc1OCC(=O)Oc1ccc(C)cc1Br,-3%,-2
Cn1c(=O)n(C)c2cc(NC(=O)c3cccs3)ccc21,10%,1
CN(c1ccccc1C(=O)NCc1ccccn1)S(C)(=O)=O,-2%,2
Cc1ccc2[nH]cc(CCNC(=O)c3cc(Cl)ccc3Cl)c2c1,6%,2
CN(C)c1ccc(/C=C/C=C(/C#N)c2ccc(F)cc2)cc1,7%,9
Cc1cc(C)nc(/N=C(\N)N(CCc2c[nH]c3ccccc23)C(=S)Nc2ccc(F)cc2)n1,-23%,0
CCn1c2ccccc2c2cc(CN3CCN(S(C)(=O)=O)CC3)ccc21,4%,3
Cc1nc2ccc(C(=O)OCc3cccc(F)c3)cc2nc1C,-4%,-7
COc1ccc(CCNc2nc(-c3ccc(NC(C)=O)cc3)cs2)cc1OC,-2%,-4
[O-][n+]1onc2c1CCc1c-2nc(-c2ccccc2F)n1O,-4%,-3
Cc1c(C(=O)c2ccccc2)n(C)c2ccccc12,-4%,0
CCOC(=O)c1c(C)[nH]c2cc(Br)c(O)cc12,60%,23
CC(CC(=O)C1C(C)C=CCC1(C)C)NNC(=O)c1ccncc1 (stereo unspecified),7%,3
Cc1cccnc1NC(=O)Nc1ccccc1Cl,-5%,-3
O=C1c2ccccc2C(=O)N1CCOc1ccccc1F,-8%,-1
CC(NS(=O)(=O)c1ccc(Cl)cc1)C(=O)NCCC1=CCCCC1 (stereo unspecified),5%,0
O=C(c1ccccc1Oc1ccc(C(F)(F)F)cc1[N+](=O)[O-])N1CCOCC1,-15%,-2
CC1=C(C(=O)Nc2ccccc2C(F)(F)F)C(c2sccc2C)C2=C(CC(C)(C)CC2=O)N1 (stereo unspecified),2%,-8
CCOc1cc(C(=O)Nc2ccc(Cl)cc2C(F)(F)F)cc(OCC)c1OCC,16%,5
N/C(=N\OC(=O)CCCN1C(=O)c2ccccc2C1=O)c1ccc([N+](=O)[O-])cc1,11%,32
COc1ccc(N2CCN(S(=O)(=O)c3ccc(Cl)c(Cl)c3)CC2)c([N+](=O)[O-])c1,-14%,-13
CCOC(=O)N1CCN(C(=O)CNC(=O)c2ccc(Br)cc2)CC1,9%,0
CC(C)c1ccccc1OCCNC(=S)NC(=O)c1cccnc1,1%,-4
Nc1nc2ccccc2cc1C(=O)Nc1cccc(Cl)c1,9%,3
Cc1cccc(N2COc3cc4c(cc3C2)OCO4)c1,3%,-9
Cc1nc2ccc(Br)cc2c2c1CC(C(C)(Cl)Br)O2 (stereo unspecified),8%,-2
CC(=O)Nc1ccc(OCc2cccc(Cl)c2Cl)cc1,88%,14
COc1ccc(NC(=S)Nc2ccn(C)n2)c(OC)c1,8%,-3
O=C(C1CCCO1)N1CCN(C(=S)NCCc2ccccc2)CC1 (stereo unspecified),7%,32
NCc1ccc2c3c1CCCN3CCC2,-2%,-3
COC(=O)c1sccc1NC(=O)C1c2ccccc2Oc2ccccc21,5%,-2
O=C1C2CC=C(Cl)CC2C(=O)N1N1CCCCC1 (stereo unspecified),13%,1
Cc1n[nH]c(=O)c2cc3c(C)n[nH]c(=O)c3cc12,-1%,5
O=C(NC(=O)c1ccccc1)Nc1ccc(Br)cc1,-16%,-10
CC1CCN(C(=O)CSc2ccc(Br)cc2)CC1,6%,-9

Screening results from PubChem.
